eIF4H inh: inhibitors of RNA binding by human eIF4H | AID 2012 | inhibition, % at 35 µM | eIF4H fluorescence polarization binding assay | Q15056 | hit rate 0.94% among 290,000;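 active means 50% or more with normal probe brightness, or confirmed in later tests; about a fifth of its hits are not listed in these tables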;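 further: calls also rest on retests at 20 µM and on dose response follow-up; 0% = protein and probe with vehicle and 100% = probe without protein; strong numbers were not always called active; many hits fall short of the cut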
PABP polyA inh: blocks human PABP binding to poly(A) RNA. hit rate 1% among 290,000. fluorescence polarization. AID 2014. P11940. inhibition, % at 35 µM;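 active means 50% or more with normal probe brightness, or confirmed in later tests; about a fifth of its hits are not listed in these tables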;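 further: calls also rest on retests at 20 µM and on dose response follow-up; controls were probe without protein and protein plus probe with vehicle; some compounds called inactive have numbers as strong as hits; many hits fall short of the cut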
Target sequence (P11940 whole entry, looked up): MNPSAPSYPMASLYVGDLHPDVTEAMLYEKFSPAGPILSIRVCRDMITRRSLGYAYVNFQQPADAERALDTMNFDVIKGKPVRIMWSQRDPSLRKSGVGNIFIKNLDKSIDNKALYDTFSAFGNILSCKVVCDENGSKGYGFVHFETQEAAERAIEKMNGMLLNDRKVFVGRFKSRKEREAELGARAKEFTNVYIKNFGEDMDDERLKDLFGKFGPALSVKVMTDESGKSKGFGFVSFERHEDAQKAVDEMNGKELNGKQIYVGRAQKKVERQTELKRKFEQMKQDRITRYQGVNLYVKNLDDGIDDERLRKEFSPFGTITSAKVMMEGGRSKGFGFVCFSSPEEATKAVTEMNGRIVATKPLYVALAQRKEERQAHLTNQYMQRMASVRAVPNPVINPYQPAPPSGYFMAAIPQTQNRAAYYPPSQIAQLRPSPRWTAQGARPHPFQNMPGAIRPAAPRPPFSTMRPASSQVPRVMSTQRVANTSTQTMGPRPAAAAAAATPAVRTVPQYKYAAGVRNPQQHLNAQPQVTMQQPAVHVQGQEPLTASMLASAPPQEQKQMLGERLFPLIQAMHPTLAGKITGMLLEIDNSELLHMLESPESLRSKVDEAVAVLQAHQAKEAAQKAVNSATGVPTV
MT1-MMP act inh: inhibitors of human MT1-MMP activation; P50281; AID 651647; HT1080 RFP-PRO-GFP cells, GFP/RFP ratio fluorescence, overnight; percent of plate control window, DMSO zero; GFP/RFP ratio change, % at 20 µM; hit rate 0.061% among 360,000;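 active means GFP/RFP ratio change of at least 30% with cell ATP level not reduced by more than half and red fluorescence within 50% of control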; further: strong numbers were not always called active
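Material – HT1080 RFP-PRO-GFP cells · Control set – DMSO wells and RFP-L50D-GFP cells · Incubation – overnight cell settling, then overnight compound exposure, 37 °C, 5% CO2 · Compound dosing – single-point 20 µM compound, 1% DMSO · Read-out – GFP/RFP fluorescence ratio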
CSC inhib: cancer stem cell inhibition; cancer stem cell-like cells viability, luminescence; hit rate 1.1% among 300,000; inhibition, % at 7.5 µM;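 active means mean at 75% or more and at least half the replicates too; tested in HMLE shEcad cells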;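 further: 0% = median of negative and 100% = median of positive control wells; the first replicate is given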
Env fusion inh: blocks HIV Env-driven cell-cell fusion; AID 651610; hit rate 1.1% among 360,000; inhibition, % at 12.3 µM; HeLa-JRFL Env/CEM21 cell fusion, luciferase;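 active means mean replicate inhibition score of at least 50 and every replicate individually at or above 50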;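 further: 0% = plate neutral controls and 100% = maraviroc near 300 nM; one replicate is shown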
UUG fidelity: modulators of start codon recognition fidelity in yeast. S. cerevisiae UUG-firefly luciferase reporter, luminescence/redox ratio. activity score, % at 18.7 µM. hit rate 0.13% among 350,000. AID 602363;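 active means replicate mean at a twofold rise or more, about +100% in these data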;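 further: firefly luciferase made from a UUG start codon reports start codon fidelity; reporter light over untreated wells divided by growth signal over untreated wells; some hits fall short of that in this replicate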
Rce1 inhib: blocks yeast Ras-converting enzyme | Q03530 | hit rate 0.27% among 290,000 | calls only | yeast membranes, quenched prenylated peptide cleavage fluorescence;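 active means fall in fluorescence gain of 50% or more versus controls, with final raw signal at or below 3038400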;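 further: plate controls were neutral control wells for no effect and wells lacking membranes for full effect; tested at 10 µM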
MT1-MMP act inh RFP: further read-out of MT1-MMP act inh, marked with its call; RFP signal change, %; measured here: RFP expression control read;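 0 = vehicle wells; hits needed this value within 50% of zero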
* hit, by the source's call; i = inactive; nt = not tested or not shown. Some of the compounds tested; the hit share may differ from the screen's.

SMILES | eIF4H inh | PABP polyA inh | MT1-MMP act inh | MT1-MMP act inh RFP | CSC inhib | Env fusion inh | UUG fidelity | Rce1 inhib
C=CCNC(=O)c1c(CSc2ccc(F)cc2)noc1C(=O)NCCC | nt | nt | 1 | 6 | 0 | -3 | -14 | i
COc1ccc(S(=O)(=O)NC(N)=NCCc2ccc(OC)c(OC)c2)cc1 | -5 | 27 | nt | nt | -3 | 11 | nt | i
COc1ccc2c(CC(=O)N3CCc4ccccc43)coc2c1 | -3 | 0 | 6 | 1 | 1 | nt | -2 | i
CC(=O)c1c(C)[nH]c(C(=O)OCC(=O)N2CCN(c3ccccc3)CC2)c1C | nt | nt | 1 | 6 | nt | 0 | -14 | nt
O=C(NCCO)c1cc([N+](=O)[O-])cc2c1C=Cc1ccccc1O2 | -1 | 8 | 3 | 5 | -17 | 5 | nt | i
COCC(=O)Nc1ccc([N+](=O)[O-])cc1OC | 8 | 0 | 2 | 5 | 0 | -3 | nt | i
CCCCn1c(=S)[nH]c2ccccc2c1=O | -7 | 0 | 0 | -5 | -11 | -19 | nt | i
CCS(=O)(=O)c1ccc2c(c1)N(S(=O)(=O)c1ccc(C)cc1)CC(C(=O)O)O2 (stereo not drawn) | -6 | 22 | 3 | 7 | -17 | 9 | -5 | i
CCCCNc1ccc2c(c1)C1CC2CCN1C(=O)OCc1ccccc1 (stereo not drawn) | nt | nt | -2 | -7 | nt | -32 | 1 | nt
O=C(CCCCl)NC(=S)Nc1ccc(N2CCOCC2)cc1 | 1 | 5 | 3 | 2 | -8 | -10 | -18 | i
CCOCCCN(C)C1CCN(C(=O)c2oc3ccccc3c2NC(=O)COc2cccc(C)c2)CC1 | -3 | 9 | 3 | 4 | 33 | 18 | 0 | i
COc1cccc(NC(=O)Nc2nnc([C@@H]3C[C@H](O)[C@@H](CO)O3)s2)c1 | nt | nt | -11 | -6 | nt | -4 | -14 | nt
Cc1c(C(=O)N2CCc3ccccc3C2)oc2ccc(S(=O)(=O)N3CC(C)CC(C)C3)cc12 (stereo not drawn) | 3 | -8 | -6 | -9 | 49 | 23 | nt | i
COc1ccc(C(=O)NC(C)Cc2c[nH]c3ccccc23)cc1 (stereo not drawn) | nt | nt | 0 | -3 | nt | -27 | -6 | nt
O=C(c1ccccc1S(=O)(=O)NCc1ccccc1)N1CCCC1 | -5 | 0 | -2 | 2 | 3 | -11 | -2 | i
CC(=O)C1=CN(Cc2ccccc2)CCC1=O | nt | nt | 2 | 4 | nt | -27 | -3 | nt
O=C(Cc1c(O)c2ccccc2[nH]c1=O)NCc1ccc(F)cc1 | -9 | -5 | -5 | -3 | -5 | nt | -16 | i
COc1ccc(/C=C2\SC(=O)N(CC(=O)Nc3ccc(F)cc3)C2=O)cc1O | 3 | -7 | 2 | -6 | 9 | -1 | -10 | i
COc1cccc(N2C(=O)C3CC=C(Cl)CC3C2=O)c1 (stereo not drawn) | -10 | 6 | 4 | 4 | 3 | 10 | -9 | i
O=C(NNC(=S)NC1CCCCC1)c1ccccc1Br | 16 | -3 | -2 | 2 | 14 | -2 | -27 | i

Reprinted from the part before: three compounds; new compounds follow.
SMILES | eIF4H inh | PABP polyA inh | MT1-MMP act inh | MT1-MMP act inh RFP | CSC inhib | Env fusion inh | UUG fidelity | Rce1 inhib
COc1ccc(/C=C2\SC(=O)N(CC(=O)Nc3ccc(F)cc3)C2=O)cc1O | 3 | -7 | 2 | -6 | 9 | -1 | -10 | i
COc1cccc(N2C(=O)C3CC=C(Cl)CC3C2=O)c1 (stereo not drawn) | -10 | 6 | 4 | 4 | 3 | 10 | -9 | i
O=C(NNC(=S)NC1CCCCC1)c1ccccc1Br | 16 | -3 | -2 | 2 | 14 | -2 | -27 | i
COc1ccc(CNc2ncc(-c3ccc(F)cc3)n2C)c2ccccc12 | -10 | -8 | -5 | -2 | 8 | 41 | -8 | i
COc1cccc(C(c2sc3nc(C)nn3c2O)N2CCC3(CC2)OCCO3)c1 (stereo not drawn) | 1 | -10 | 1 | 1 | -13 | -9 | -13 | i
COc1ccc(Cl)cc1NC(=O)C1CC(c2ccccc2Cl)=NO1 (stereo not drawn) | nt | nt | -3 | 2 | nt | 13 | -2 | nt
O=C(c1ccccc1SCc1ccc(F)cc1)N1CCOCC1 | -3 | -4 | -1 | 0 | -22 | 16 | nt | i
Cc1cc(C)nc(N(C#N)Cc2cccc([N+](=O)[O-])c2)n1 | 6 | 3 | -1 | 0 | -5 | 5 | nt | i
CCN1C(=O)C(O)(CC(=O)c2ccccn2)c2ccccc21 (stereo not drawn) | -11 | 0 | -3 | 3 | 2 | 10 | -3 | i
O=C(COc1ccccc1)N1c2ccccc2Sc2ccccc21 | 2 | 5 | -9 | -5 | -8 | 13 | -22 | i
CC1(C(=O)Nc2ccc(F)cc2F)CCN1C(=O)Cc1ccccc1 (stereo not drawn) | nt | nt | 7 | 3 | nt | 25 | -38 | nt
Cc1nc2ccccc2nc(C)c1=NOCc1cccc(F)c1 | -1 | -5 | 2 | 0 | 32 | 41 | nt | i
O=C(NC12CC3CC(CC(C3)C1)C2)c1ccco1 | -1 | -5 | 0 | 2 | -11 | -5 | 1 | i
CC(C)(C)C(=O)Nc1nnc(SCC(=O)NC2CCCCC2)s1 | -8 | 2 | -2 | -5 | -1 | 12 | 18 | i
Cc1ccccc1-c1cc(-c2ccccc2O)n[nH]1 | 11 | -5 | 1 | -1 | -5 | -425 | -15 | i
Cc1sc(NC(=O)C2CSC3(C)CCC(=O)N23)nc1-c1ccccc1 (stereo not drawn) | nt | nt | -11 | -5 | 8 | -20 | 10 | i
Cc1c(F)cccc1NC(=O)CCC(=O)O | -1 | 0 | 0 | -2 | -5 | -13 | -17 | i
CCCCN(CC)C(=O)C1CCC(CNS(=O)(=O)c2cccc3nsnc23)CC1 (stereo not drawn) | -11 | 6 | -3 | -5 | -1 | 3 | 4 | i
O=C(Cn1nc(CNc2ccc(Cl)cc2)[n+]2c1CCCCC2)c1ccc(Br)cc1 | -13 | -12 | 4 | -6 | -1 | -5 | 20 | i
C=CCOc1ccc(/C=C\c2nc(O)c([N+](=O)[O-])c(=O)[nH]2)cc1OC | 8 | 27 | 1 | 2 | 14 | nt | -16 | i
O=C(CC[C@H]1O[C@@H](n2cnc3c(NC(=O)c4ccccc4)ncnc32)[C@H](O)[C@@H]1O)N[C@@H](CO)c1ccccc1 | nt | nt | 0 | 4 | nt | -8 | 12 | nt
CN(C)c1cc[n+](CC[n+]2ccc(N(C)C)cc2)cc1 | nt | nt | -3 | 2 | -10 | 1 | -19 | i
N#CC1=C(SCC(=O)NCc2ccccc2)NC(=O)CC1c1ccco1 (stereo not drawn) | 7 | -1 | -4 | -4 | -3 | nt | -11 | i
COc1ccc(C(=O)Nc2cc3c(cc2N2CCOCC2)n(C)c(=O)n3C)cc1OC | 2 | -2 | 7 | 9 | 0 | nt | -14 | i
CCCc1nc(N)c(C#N)c(N)c1C#N | -2 | 6 | 8 | 2 | -2 | nt | nt | i
CN(C)CCCNc1nc2cc(-c3cncnc3)sc2c(=O)n1C | nt | nt | 3 | 5 | nt | 6 | -10 | nt
CCc1cc(C(=O)c2ccc(OC)cc2)c(NC(=O)CCC(=O)O)s1 | -6 | 9 | -3 | -2 | 2 | 27 | -2 | i
CCCCC[C@@H]1C=C(C(=O)O)[C@H](c2ccc(Br)cc2)N1S(=O)(=O)c1ccc(C)cc1 | nt | nt | 10 | -1 | nt | 24 | -14 | nt
COC(=O)c1cc(C(=O)OC)n(Cc2ccc(Cl)cc2Cl)n1 | -8 | 4 | -2 | -2 | -6 | 10 | nt | i
CCN(C(=O)CN1C(=O)NC(c2ccccc2)(c2ccccc2)C1=O)c1ccccc1 | -4 | 1 | -5 | -5 | 4 | -11 | -1 | nt
O=C1CCCC2=C1C(c1ccccc1)CC(=O)N2c1ccc(F)cc1F (stereo not drawn) | -2 | -8 | -16 | -7 | -3 | 2 | nt | i
COc1ncccc1-c1nnn(-c2ccc(C)cc2)n1 | -8 | -1 | -1 | -1 | -9 | -58 | -22 | i
COc1cc(C2C(C#N)=C(N)Oc3cc4c(cc32)OCO4)cc(OC)c1OC (stereo not drawn) | 1 | 4 | 12 | -2 | 38 | -65 | nt | i
CCn1c(SCC(=O)n2c(C)c(C)c3ccccc32)nnc1-c1ccco1 | -7 | -10 | 7 | -2 | -10 | -48 | nt | i
COc1ccc(C(=O)N2CCN(CCNC(=O)C(=O)Nc3ccc(F)cc3)CC2)cc1OC | 0 | -2 | -1 | -3 | -5 | 6 | -18 | nt
CCCCNC(=O)c1ccc2c(c1)ncn2C1CCCCC1 | -3 | 3 | 2 | 1 | -9 | nt | -4 | i
CC(=O)C1=C(C)N(CC2CC2)C(=O)N[C@H]1c1ccc(Br)cc1 | 3 | -2 | 3 | 0 | -11 | 1 | -17 | i
O=C(c1ccccc1)N1CCOC12CCN(c1ncc(C(F)(F)F)cc1Cl)CC2 | 3 | 11 | -16 | -26 | -21 | nt | -13 | i
O=[N+]([O-])c1ccc(N2CCN(S(=O)(=O)c3cnc[nH]3)CC2)cc1 | -2 | -7 | 4 | 1 | -10 | -3 | nt | i
CC(=O)c1cccc(S(=O)(=O)N2CCC(C(=O)NC3CCCC3)CC2)c1 | nt | nt | 40* | -3.7* | nt | -1 | 15 | nt
Cc1nn(C)c(C)c1NC(=O)c1cc2nc(-c3ccco3)cc(C(F)(F)F)n2n1 | -12 | 6 | 1 | 0 | 4 | 8 | nt | i
O=C(CN1C(=O)C2C3C=CC(C3)C2C1=O)Nc1ccc(S(=O)(=O)N2CCCCC2)cc1 (stereo not drawn) | -5 | 0 | 7 | 2 | 0 | 6 | nt | i
CCS(CC)=NS(=O)(=O)c1ccc(NC(C)=O)cc1 | -16 | 7 | -1 | 0 | -10 | nt | -16 | i
O=C(/C=C/c1ccccc1)Nc1ncn[nH]1 | -5 | 6 | -21 | 3 | 27 | nt | -27 | i
O=C(N[C@H](Cc1cc(=O)[nH]c2ccccc12)C(=O)O)c1ccc(Cl)cc1 | -7 | -3 | 3 | 4 | 4 | 7 | -18 | i
Cc1ccccc1OCC(=O)Nc1nc(C)c(C(=O)N(C)C)s1 | -9 | -5 | -2 | 1 | 3 | nt | -5 | i
CCCCn1c(SCC(=O)Nc2cc(NC(=O)c3ccco3)ccc2C)nc2ccccc2c1=O | -6 | -14 | -5 | -1 | 10 | -279 | -15 | i
COc1ccc(N(CC(=O)Nc2cc(Cl)ccc2OC)C2=NC3CS(=O)(=O)CC3S2)cc1 (stereo not drawn) | -4 | 0 | -8 | 0 | -1 | 16 | -12 | i
O=C(Nc1ccccc1)c1nc[nH]c1C(=O)Nc1ccccc1F | nt | nt | 3 | 7 | nt | -100 | -10 | nt
O=C(Nc1ccccc1)c1ccc(S(=O)(=O)N2CCC(C(=O)O)CC2)cc1 | 3 | -2 | -2 | 0 | 8 | 15 | -7 | i
CN(C)CCCCCCCCCCC(=O)/C=N/O | nt | nt | -5 | 1 | 35 | nt | -2 | i
CCOc1ccc2[nH]c(O)c(NC(C)=O)c2c1 | 1 | 5 | 2 | 3 | 20 | nt | -2 | i
CN(CC(=O)Nc1cc(S(=O)(=O)N2CCCC2)ccc1Cl)Cc1ccc2c(c1)OCO2 | nt | nt | -2 | -17 | nt | 5 | -15 | nt
Cc1cccc(C)c1NC(=O)C(NC(=O)CN1C(=O)c2ccccc2C1=O)c1ccccc1 (stereo not drawn) | 4 | -5 | 2 | 1 | -14 | -26 | nt | i
O=C1C=CC2C(c3ccc4c(c3)OCO4)CC1N2Cc1ccccc1 (stereo not drawn) | -2 | 9 | -9 | 7 | 10 | 1 | 5 | i
O=C(Nc1ccc(Br)c(C(F)(F)F)c1)c1ccccc1 | -12 | 0 | -14 | -21 | 24 | -17 | nt | i
CC(C)OCC(O)CN1CCN(CCN2C(=O)c3cccc4cccc(c34)C2=O)CC1 (stereo not drawn) | -7 | 17 | -3 | 1 | -1 | 1 | -20 | i
